Ecoli rRNA inh: inhibits bacterial ribosomal RNA function over humanized ribosomes | 1.6% of 350,000 active | E. coli WT GFP vs humanized-ribosome RFP mutants, fluorescence, 24 h; active compounds read low; DMSO median 0, no signal -100 | GFP signal change (wild-type ribosome), % (no concentration beside the values);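 active = significant combined selectivity score with lowered wild-type GFP, culture density cut under 30%, mutant RFP and density less affected; inactive = any of these conditions unmet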; also: one replicate is shown; some compounds called inactive have numbers as strong as hits
FGF22 binding: shifts melting point of recombinant human FGF22; 1.5% of 340,000 active; recombinant FGF22 thermal shift, SYPRO orange fluorescence; percent of sucrose octasulfate shift, DMSO zero; AID 651658; calls only at 9.99 µM;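 active = melting point raised past a set limit in the mean and every replicate; three in four hits are not shown here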
Target sequence (Q9HCT0 whole entry, looked up): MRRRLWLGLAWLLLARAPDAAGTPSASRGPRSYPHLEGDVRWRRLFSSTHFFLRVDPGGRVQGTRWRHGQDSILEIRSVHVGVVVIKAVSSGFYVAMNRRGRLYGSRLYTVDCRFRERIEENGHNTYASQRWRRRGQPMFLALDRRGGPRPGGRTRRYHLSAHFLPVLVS
Ecoli rRNA inh OD600: also measured in Ecoli rRNA inh; calls as there; OD600 change, %; measured here: OD600 growth;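 optical density of the mix in the first replicate; 0 = DMSO median and -100 = no signal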
Ecoli rRNA inh RFP: second read-out of Ecoli rRNA inh, no call of its own (marks repeat the call); RFP signal change, %; measured here: RFP humanized mutant strains;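 first replicate; 0 = DMSO median and -100 = no signal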
An asterisk follows results filed as active; i = inactive.

SMILES	Ecoli rRNA inh	Ecoli rRNA inh OD600	Ecoli rRNA inh RFP	FGF22 binding
CC(C)NC(=O)N(C)C[C@H]1Oc2ccc(NS(=O)(=O)c3cn(C)cn3)cc2CC(=O)N([C@@H](C)CO)C[C@@H]1C	3.8	5.2	-1.7	i
Cc1ccc(S(=O)(=O)Nc2ccc3c(c2)CC(=O)N([C@H](C)CO)C[C@@H](C)[C@H](CN(C)C(=O)NC(C)C)O3)cc1	4.4	7.0	-0.1	i
C[C@H](O)C#Cc1ccc([C@@H]2[C@H]3CN(CC4CCOCC4)CCCCN3[C@H]2CO)cc1	8.1	30.0	0.9	i
CC=Cc1ccc2n(c1=O)C[C@@H]1[C@@H](CO)[C@H](C(=O)Nc3ccccc3)N(CC3CC3)[C@H]21 (mixture of isomers)	-4.7	-10.5	3.3	i
CNC[C@@H]1Oc2ccc(NC(=O)Nc3ccc(F)cc3)cc2C(=O)N([C@H](C)CO)C[C@H]1C	1.8	1.3	0.3	i
C[C@H]1CN([C@@H](C)CO)C(=O)Cc2cc(NC(=O)Nc3ccc(F)cc3)ccc2O[C@H]1CN(C)Cc1ccc(C(=O)O)cc1	-1.4	2.3	-2.2	i
COCc1cn(CC[C@@H]2CC[C@@H](NC(=O)c3ccc(F)cc3)[C@@H](CO)O2)nn1	-1.4	-12.6	1.0	i
CO[C@H]1CN(C)C(=O)c2cc(NC(=O)Nc3cccc(F)c3)ccc2OC[C@H](C)NC[C@@H]1C	-4.3	-9.1	-0.2	i
CNC(=O)C[C@H]1CC[C@H]2[C@H](COc3ccc(NC(=O)Nc4c(C)noc4C)cc3C(=O)N2C)O1	2.2	6.1	-0.5	i
C[C@H](CO)N1C[C@H](C)[C@H](CN(C)C(=O)C2CC2)Oc2cc(-c3ccncc3)ccc2S1(=O)=O	0.5	-1.4	-2.6	i
COCC(=O)Nc1ccc2c(c1)C(=O)N(C)C[C@H](OC)[C@H](C)CN(C(=O)Cc1ccccn1)[C@@H](C)CO2	0.2	2.2	-2.4	i
COc1ccc2c3c([nH]c2c1)[C@H](CO)N(C(=O)CN(C)C)CC31CCN(CC2CC2)CC1	6.0	13.2	0.1	i
CO[C@@H]1CN(C)C(=O)c2cc(NS(=O)(=O)c3cccc(F)c3)ccc2OC[C@@H](C)NC[C@H]1C	1.6	0.9	-3.6	i
O=C(CN1CCOCC1)N1CCCCN2[C@H](CO)[C@H](c3ccc(/C=C/c4ccccc4)cc3)[C@@H]2C1	1.9	3.1	9.3	i
C[C@H]1CN([C@@H](C)CO)C(=O)c2cc(C#Cc3ccccc3F)cnc2O[C@H]1CN(C)C(=O)Cc1cccnc1	1.5	-19.5	0.6	i
Cc1noc(C)c1NC(=O)N(C)C[C@@H]1Oc2ccc(NS(=O)(=O)c3cn(C)cn3)cc2C(=O)N([C@@H](C)CO)C[C@H]1C	0.7	8.0	1.7	i
COc1cccc(S(=O)(=O)Nc2ccc3c(c2)[C@H]2C[C@@H](CC(=O)N4CCCCC4)O[C@H](CO)[C@H]2O3)c1	-6.1	-2.8	-0.9	i
CNC[C@@H]1Oc2cc(C#CCN(C)C)ccc2S(=O)(=O)N([C@@H](C)CO)C[C@@H]1C	5.0	1.4	2.2	i
COCCNC(=O)C[C@H]1CC[C@H]2[C@@H](COC[C@H](O)CN2S(=O)(=O)c2ccccc2C)O1	2.4	-1.1	-3.0	i
O=C(Cc1ccncc1)NCC[C@@H]1CC[C@@H](NC(=O)C2CCOCC2)[C@H](CO)O1	3.3	4.3	-1.0	i
COc1cccc(S(=O)(=O)N[C@@H]2CC[C@H](CCn3cc(-c4ccc(F)cc4)nn3)O[C@@H]2CO)c1	-4.5	-3.6	3.5	i
O=C(C[C@@H]1CC[C@@H]2[C@H](COC[C@H](O)CN2C(=O)Nc2ccc(F)cc2)O1)NC1Cc2ccccc2C1	-1.3	6.2	0.8	i
CN1C(=O)c2cc(NC(=O)c3ccc(F)cc3)ccc2OC[C@@H]2O[C@@H](CC(=O)NCC3CC3)CC[C@H]21	0.2	7.2	2.1	i
COc1cccc(-c2cnc3c(c2)C(=O)N([C@@H](C)CO)C[C@@H](C)[C@@H](CN(C)Cc2ccc(F)cc2)O3)c1	-2.7	-5.1	-0.3	i
Cc1noc(C)c1NC(=O)N(C)C[C@@H]1Oc2c(cccc2N(C)C)C(=O)N([C@H](C)CO)C[C@@H]1C	2.1	4.2	-2.6	i

Arranged by molecular weight (falling): six of the compounds above
SMILES	Ecoli rRNA inh	Ecoli rRNA inh OD600	Ecoli rRNA inh RFP	FGF22 binding
CC(C)NC(=O)N(C)C[C@H]1Oc2ccc(NS(=O)(=O)c3cn(C)cn3)cc2CC(=O)N([C@@H](C)CO)C[C@@H]1C	3.8	5.2	-1.7	i
COc1cccc(-c2cnc3c(c2)C(=O)N([C@@H](C)CO)C[C@@H](C)[C@@H](CN(C)Cc2ccc(F)cc2)O3)c1	-2.7	-5.1	-0.3	i
CN1C(=O)c2cc(NC(=O)c3ccc(F)cc3)ccc2OC[C@@H]2O[C@@H](CC(=O)NCC3CC3)CC[C@H]21	0.2	7.2	2.1	i
O=C(CN1CCOCC1)N1CCCCN2[C@H](CO)[C@H](c3ccc(/C=C/c4ccccc4)cc3)[C@@H]2C1	1.9	3.1	9.3	i
CNC[C@@H]1Oc2ccc(NC(=O)Nc3ccc(F)cc3)cc2C(=O)N([C@H](C)CO)C[C@H]1C	1.8	1.3	0.3	i
C[C@H](O)C#Cc1ccc([C@@H]2[C@H]3CN(CC4CCOCC4)CCCCN3[C@H]2CO)cc1	8.1	30.0	0.9	i

(further entries)
SMILES	Ecoli rRNA inh	Ecoli rRNA inh OD600	Ecoli rRNA inh RFP	FGF22 binding
O=C(C[C@H]1CC[C@H]2[C@@H](COC[C@H](O)CN2CCC(F)(F)F)O1)NCc1ccc2c(c1)OCO2	0.5	5.9	-1.1	i
C[C@@H]1CN([C@H](C)CO)S(=O)(=O)c2ccc(-c3cccc(C#N)c3)cc2O[C@@H]1CN(C)Cc1cccc(F)c1	-5.4	-10.4	-0.1	i
COC(=O)C1=C(C)N(CC(C)C)C(=S)NC1c1ccc(-c2ccccc2)cc1 (stereo not drawn)	7.7	3.9	12.1	i
COc1ccccc1-c1ccc([C@H]2[C@@H](C#N)N(C(=O)C3CC3)[C@@H]2CO)cc1	1.5	2.5	-1.0	i
CO[C@@H]1CN(C)C(=O)c2ccc(NC(=O)C3CCCCC3)cc2OC[C@@H](C)N(Cc2nccs2)C[C@H]1C	-7.0	-8.2	-0.6	i
CO[C@H]1CN(C)C(=O)c2cc(NC(=O)c3cccc(F)c3)ccc2OC[C@@H](C)NC[C@@H]1C	2.7	-0.8	0.0	i
C[C@H](CO)N1C[C@H](C)[C@@H](CN(C)Cc2cccc(C(=O)O)c2)Oc2ncc(C#CC(C)(C)O)cc2C1=O	1.4	3.4	1.4	i
C[C@@H]1CN([C@H](C)CO)C(=O)CCCn2cc(nn2)CO[C@@H]1CN(C)S(=O)(=O)c1cn(C)cn1	1.1	2.6	-0.9	i
C[C@@H]1CN([C@@H](C)CO)C(=O)c2cc(NC(=O)CCC(F)(F)F)ccc2O[C@@H](C)CCCCO[C@@H]1CN(C)Cc1ccc(C(F)(F)F)cc1	1.7	4.6	2.1	i
COc1ccc(NC(=O)Nc2ccc3c(c2)C(=O)N([C@@H](C)CO)C[C@@H](C)[C@@H](CN(C)C(=O)Nc2ccccc2)OCCCC[C@H](C)O3)cc1	-2.5	-0.9	0.6	i
COc1ccc2c3c([nH]c2c1)[C@@H](CO)N(C(=O)Nc1ccc(F)cc1)CC31CN(C(=O)Nc2ccc3c(c2)OCO3)C1	-1.3	7.4	3.5	i
COc1ccc(NC(=O)Nc2ccc3c(c2)[C@H]2C[C@H](CC(=O)NCc4ccc5c(c4)OCO5)O[C@H](CO)[C@H]2O3)cc1	-4.1	9.0	-4.3	i
C[C@@H]1CN([C@H](C)CO)C(=O)c2cc(NS(=O)(=O)c3ccc(F)cc3)ccc2O[C@H]1CN(C)Cc1ccc(C(=O)O)cc1	2.9	14.3	-2.6	i
CCC(=O)Nc1ccc2c(c1)OC[C@@H](C)N(C(=O)C1CC1)C[C@H](C)[C@@H](OC)CN(C)C2=O	-0.3	0.8	-1.3	i
CCC(=O)N1CC2(C1)[C@@H](c1ccc(-c3cccc(F)c3)cc1)[C@@H](CO)N2CC1CC1	-6.7	-10.4	4.3	i
C[C@@H]1CN([C@@H](C)CO)C(=O)c2cc(NS(=O)(=O)c3ccc(Cl)cc3)ccc2O[C@H]1CN(C)Cc1ccc(C(=O)O)cc1	2.1	4.0	-0.4	i
O=C(Nc1cccc(Cl)c1)N[C@@H]1CC[C@@H](CCNC(=O)C2CCCCC2)O[C@H]1CO	-0.7	-12.9	0.3	i
COCC#Cc1cnc2c(c1)C(=O)N([C@H](C)CO)C[C@@H](C)[C@H](CN(C)C(C)=O)O2	0.3	2.3	-3.3	i
C[C@@H]1CN([C@@H](C)CO)C(=O)c2cc(NC(=O)Cc3cn(C)c4ccccc34)ccc2O[C@@H]1CN(C)S(=O)(=O)c1ccc(F)cc1	3.0	-9.0	1.7	i
CC(=O)N1CCN(c2ccc(N3CCN(Cc4ccccc4)[C@@H](C)C3)c(C)c2)[C@H](C)C1	3.0	7.8	7.3	i
COc1ccc(S(=O)(=O)N(C)C[C@H]2Oc3cc(-c4cccc(F)c4)ccc3S(=O)(=O)N([C@H](C)CO)C[C@H]2C)cc1	-1.0	-3.9	-0.9	i
Cc1cccc(S(=O)(=O)N2CC[C@@H]3[C@H]2c2cc(C#Cc4ccc(F)cc4)ccc2N[C@@H]3CO)c1	6.5	9.1	1.7	i
COC(=O)C[C@@H]1C[C@@H]2c3cc(NC(=O)C4CCOCC4)ccc3O[C@@H]2[C@@H](CO)O1	0.5	6.9	-0.5	i
O=C([C@H]1[C@H](CO)[C@H]2Cn3c(ccc(-c4cncnc4)c3=O)[C@H]2N1CC1CC1)N1CCCCC1	1.3	-0.3	-1.2	i
COc1ccc(C(=O)N2C[C@H]3[C@@H](c4ccccc42)[C@@H](CO)N3Cc2ccccc2Cl)cc1	-24.6	-48.0	-0.5	i
Remaining list, next part:
SMILES	Ecoli rRNA inh	Ecoli rRNA inh OD600	Ecoli rRNA inh RFP	FGF22 binding
COc1ccc(NC(=O)N(C)C[C@@H]2Oc3ccc(NC(=O)CCC(F)(F)F)cc3CC(=O)N([C@@H](C)CO)C[C@H]2C)cc1	1.4	-3.1	0.0	i
C[C@@H]1CN([C@@H](C)CO)C(=O)Cc2cc(NC(=O)Cn3cnnn3)ccc2O[C@@H]1CN(C)S(=O)(=O)c1cn(C)cn1	3.6	-0.1	-1.4	i
C[C@H]1CN([C@@H](C)CO)C(=O)c2cccc(NC(=O)NC3CCCCC3)c2O[C@H]1CN(C)Cc1ccc(Oc2ccccc2)cc1	-4.9	-22.3	0.5	i
Cc1noc(C)c1NC(=O)Nc1ccc2c(c1)CC(=O)N([C@H](C)CO)C[C@@H](C)[C@@H](CN(C)S(=O)(=O)c1ccccc1)O2	-0.6	6.8	2.5	i
C[C@@H]1CN([C@H](C)CO)C(=O)Cc2cc(NC(=O)CCCCCC(=O)Nc3ccccc3N)ccc2O[C@@H]1CN(C)S(=O)(=O)c1ccc(F)cc1	1.3	8.4	0.9	i
O=C(C[C@H]1CC[C@@H]2[C@H](COC[C@H](O)CN2Cc2cccc(-c3ccncc3)c2)O1)N1CCOCC1	-6.3	3.4	-5.2	i
CNC[C@@H]1Oc2ccc(NS(=O)(=O)c3c(C)noc3C)cc2CC(=O)N([C@@H](C)CO)C[C@@H]1C	1.9	3.2	1.6	i
O=C(C[C@H]1CC[C@@H]2NC[C@@H](O)COC[C@H]2O1)Nc1ccc(-c2ccccc2)cc1	3.2	2.8	-0.8	i
CCCNC(=O)N1[C@H](CO)[C@H](c2ccccc2)C12CN(C(=O)C1CCCCC1)C2	-1.9	7.1	2.4	i
C[C@@H]1CN([C@H](C)CO)C(=O)c2cc(NC(=O)CCN3CCOCC3)ccc2O[C@@H]1CN(C)C(=O)Nc1cccc2ccccc12	4.4	-8.1	2.0	i
O=C(C[C@H]1CC[C@H]2[C@@H](COC[C@H](O)CN2Cc2cccc(F)c2)O1)NCCc1ccncc1	3.5	-2.7	-0.5	i
C[C@@H]1CN([C@H](C)CO)C(=O)Cc2cc(NC(=O)Nc3ccc(F)cc3)ccc2O[C@@H]1CN(C)C(=O)Nc1ccc(F)cc1	1.2	-1.3	0.2	i
CC(C)NC(=O)N(C)C[C@@H]1Oc2cc(C#Cc3ccccn3)ccc2S(=O)(=O)N([C@@H](C)CO)C[C@@H]1C	-2.2	2.5	-3.6	i
COC(=O)C1=C(C)N(Cc2ccccc2C(F)(F)F)C(=NCc2ccc(OC)cc2)NC1c1cccc(C(F)(F)F)c1 (stereo not drawn)	-36.3	-73.1	-10.0	i
COc1cccc(S(=O)(=O)N2CC3(CCN(C)CC3)c3c(n(C)c4cc(OC)ccc34)[C@H]2CO)c1	-0.5	-1.4	0.1	i
COC(=O)c1cc2c(c3c4ccccc4n(S(=O)(=O)c4ccc(OC)cc4)c13)C(=O)N(Cc1ccccc1OC)C2	12.8	10.1	8.1	i
Cc1ccccc1S(=O)(=O)NCC[C@H]1CC[C@@H](NC(=O)C2CCC2)[C@@H](CO)O1	0.0	-0.9	-4.1	i

Assay outcomes (PubChem BioAssay)

An excerpt. The share of hits here may be higher or lower than overall.
